2A StopGo: High Throughput Screening for Foot and Mouth Disease Virus Antivirals. human cells with a luciferase reporter of 2A StopGo recoding; control for the full effect not named in the record. Potency, µM (highest dose often 57.9 µM), without a hit: at the top dose signal change, negative = less light. hit rate 1.2% among 410,000. AID 1159524, 2015; active = well fitted falling curve with a large enough effect; inconclusive = small, poorly fitted or top-dose-only effect; inactive = no such curve, though single readings can be large or run the other way; tested in HEK293T cells; note: nearly all actives have a fitted effect of over 45% in size; luciferase light after 4 h
RE007 growth inh: qHTS Assay for Inhibitors of the HIV-1 protein Vpr | hit rate 0.21% among 360,000 | S. pombe RE007 Vpr strain, BacTiter-Glo ATP luminescence, 24 h; control for the full effect not named in the record | Potency, µM (series often up to 92.2 µM), inactives show at the top dose activity change, negative = less growth; active = well fitted falling curve with a large enough effect; inconclusive = small, poorly fitted or top-dose-only effect; inactive = no such curve, though single readings can be large or run the other way;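 note: nearly all actives have a fitted effect of over 50% in size; the assay follows cell death caused by Vpr and the record does not say whether a fall means rescue or toxicity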
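Fission yeast RE007 carrying one integrated HIV-1 vpr copy, seeded at OD 0.01 in PMG+AL medium with 23 nL pinned compound. Grown 24 h at 30 degrees; viability read by BacTiter-Glo luminescence after 5 min.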
Numbers without * were called inactive; [ ] = another dose, or the depositor's remark. % is set by controls: 0 for no effect and ±100 for the full control effect; potency is the fitted concentration of half-maximal effect.

`CC(=O)c1ccc(N2CCN(C(=O)CNC(=O)c3ccc(Br)o3)CC2)cc1` gave 2A StopGo 0.0% and RE007 growth inh 11.5%.
Screening CC1(C(=O)NS(=O)(=O)c2ccc3c(c2)CCO3)CCN1C(=O)Cc1ccc(-c2ccccc2)cc1 (stereo not drawn) returned 2A StopGo 13.4% and RE007 growth inh 5.7%.
For CCc1c(N=O)c(-c2ccccc2)n(O)[n+]1[O-] the results were 2A StopGo 0.0% and RE007 growth inh -12.9%.
For Cc1cc(O)c2c(c1)C(=O)[C@@]13Oc4c5c(c(O)c6c(O)cc(C)cc46)C(=O)C[C@H](O)[C@H]5[C@@H]1[C@@H](O)CC(=O)C3=C2O the results were 2A StopGo -2.8% and RE007 growth inh -1.7%.
CN(Cc1ccc(C(F)(F)F)cc1)C(=O)[C@H]1O[C@@H](n2ccc(=O)[nH]c2=O)[C@H](O)[C@@H]1O was read as 2A StopGo -6.9% and RE007 growth inh 1.0%.
CCCCCn1nnnc1C1c2ccccc2C(=O)N1Cc1ccco1 (stereo not drawn) was read as 2A StopGo -11.4% and RE007 growth inh 0.5%.
For CCCNC(=O)C1(C)CCCN(Cc2cccn2C)C1 (stereo not drawn) the results were 2A StopGo 4.2% and RE007 growth inh 4.1%.
O=c1cccc(-c2ccc3ccccc3c2)o1 was read as 2A StopGo 19.2% and RE007 growth inh -5.9%.
For O=C(Nc1nnc([C@H]2C[C@H](O)[C@@H](CO)O2)s1)NC(c1ccccc1)c1ccccc1 the results were 2A StopGo -5.9% and RE007 growth inh -0.9%.
For C[C@@H]1CN([C@@H](C)CO)C(=O)CCCn2nncc2CO[C@H]1CN(C)Cc1ccc(Oc2ccccc2)cc1 the results were 2A StopGo -17.7% and RE007 growth inh -1.5%.
Screening CCN(CC)S(=O)(=O)c1ccc(OC)c(NC(=O)c2cc([N+](=O)[O-])ccc2N2CCOCC2)c1 returned 2A StopGo inconclusive and RE007 growth inh 14.7%.
For CN1CCn2cnc(C(=O)NCCCCCNC(=O)OC(C)(C)C)c2C1=O the results were 2A StopGo -2.3% and RE007 growth inh -18.0%.
Screening NCc1csc(NC(=O)Nc2cccc(C(F)(F)F)c2)n1 returned 2A StopGo 3.6% and RE007 growth inh 10.1%[18.4 µM].
CN1CCN(C(=O)c2ccc(-c3cnn(C)c3)c3ccoc23)CC1 was read as 2A StopGo -12.3% and RE007 growth inh 14.1%.
Screening COC(=O)C(C(=O)OC)c1ccccc1CNS(=O)(=O)c1ccc(C)cc1 returned 2A StopGo 4.2% and RE007 growth inh 7.5%.
COc1ccc(OC)c(C(O)c2ncc(-c3ccccc3OC)[nH]2)c1 (stereo not drawn) was read as 2A StopGo -8.4% and RE007 growth inh 2.2%[18.4 µM].
For O=C(NCC1CCCCC1)c1ccc2nc([C@H]3C[C@H](O)[C@@H](CO)O3)[nH]c2c1 the results were 2A StopGo -18.2% and RE007 growth inh -2.1%.
Screening COc1ccc(C#Cc2cnc3c(c2)C(=O)N([C@H](C)CO)C[C@@H](C)[C@H](CN(C)C(=O)CN(C)C)O3)cc1 returned 2A StopGo -5.6% and RE007 growth inh -12.2%.
`Cc1ccc(N(CC(=O)NC(C)(C)C)C(=O)CCC(=O)Nc2ccccn2)cc1` gave 2A StopGo -12.8% and RE007 growth inh 1.9%.
Screening OC(c1ccc(Cl)c(F)c1)c1ncc(-c2ccccc2C(F)(F)F)[nH]1 (stereo not drawn) returned 2A StopGo 54.7%[activator] and RE007 growth inh 0.5%.

Looked up by compound from the entries so far, 5 records:
Screening NCc1csc(NC(=O)Nc2cccc(C(F)(F)F)c2)n1 returned 2A StopGo 3.6% and RE007 growth inh 10.1%[18.4 µM].
CN(Cc1ccc(C(F)(F)F)cc1)C(=O)[C@H]1O[C@@H](n2ccc(=O)[nH]c2=O)[C@H](O)[C@@H]1O was read as 2A StopGo -6.9% and RE007 growth inh 1.0%.
CN1CCN(C(=O)c2ccc(-c3cnn(C)c3)c3ccoc23)CC1 was read as 2A StopGo -12.3% and RE007 growth inh 14.1%.
Screening COc1ccc(C#Cc2cnc3c(c2)C(=O)N([C@H](C)CO)C[C@@H](C)[C@H](CN(C)C(=O)CN(C)C)O3)cc1 returned 2A StopGo -5.6% and RE007 growth inh -12.2%.
For CCCNC(=O)C1(C)CCCN(Cc2cccn2C)C1 (stereo not drawn) the results were 2A StopGo 4.2% and RE007 growth inh 4.1%.

The results go on.
For O=C1CCCC(O)=C1Sc1cc(Cl)c(Cl)cc1Cl the results were 2A StopGo -13.8% and RE007 growth inh 3.7%.
For Cc1ccc(/C(O)=C2\C(=O)C(=O)N(C)C2c2ccccc2)cc1 (stereo not drawn) the results were 2A StopGo -14.5% and RE007 growth inh -5.3%.
Screening CCOC1=C2CN(S(=O)(=O)c3ccc(C)cc3)[C@H](c3cccc4ccccc34)C[C@H]2C(C#N)(C#N)C(C#N)(C#N)C1 returned 2A StopGo inconclusive and RE007 growth inh -8.2%.
COc1ccc(Cl)cc1Cn1c(C)c(C(=O)NCc2ccc3c(c2)OCCO3)sc1=O was read as 2A StopGo -24.7% and RE007 growth inh 31.9%[18.4 µM].
Screening COc1ccc([C@H]2/C=C\CN(S(C)(=O)=O)[C@@H](C)C(=O)N2Cc2ccc(F)cc2)cc1 returned 2A StopGo -16.7% and RE007 growth inh -4.3%.
Cn1c(=O)c2c(ncn2CC(=O)OCC(=O)NCc2ccc(F)cc2)n(C)c1=O was read as 2A StopGo -10.8% and RE007 growth inh 1.5%.
`CCCC(=O)Nc1nnc([C@H]2C[C@H](O)[C@@H](CO)O2)s1` gave 2A StopGo -8.1% and RE007 growth inh 2.9%[18.4 µM].
OC[C@@H]1CN(Cc2ccc(Cl)cc2)C[C@H](n2cnc3c(NCc4ccco4)ncnc32)O1 was read as 2A StopGo -28.0% and RE007 growth inh 3.0%.
Screening CC(C)(C)c1ccc(C(=O)N2CCC2(C)C(=O)Nc2cccc3ccccc23)cc1 (stereo not drawn) returned 2A StopGo inconclusive and RE007 growth inh -11.8%.
Screening Cc1noc(C)c1NC(=O)Nc1ccc2c(c1)C(=O)N([C@H](C)CO)C[C@@H](C)[C@@H](CN(C)S(=O)(=O)c1cn(C)cn1)OCCCC[C@H](C)O2 returned 2A StopGo -10.7% and RE007 growth inh -23.4%.
For CCCC(=O)N1CCCC1(C)C(=O)Nc1cc(OC)ccc1OC (stereo not drawn) the results were 2A StopGo -9.7% and RE007 growth inh 5.2%[18.4 µM].
Screening Cc1ccc(NC(=O)CSc2nc3cc(C(=O)NCC4CCCO4)ccc3c(=O)n2CC2CCCO2)cc1 (stereo not drawn) returned 2A StopGo 6.1% and RE007 growth inh 9.4%.
Screening C=C1CCN([C@@H](CC(C)C)C(=O)NCc2cc(OC)c(OC)c(OC)c2)S(=O)(=O)c2ccccc21 returned 2A StopGo -2.0% and RE007 growth inh -4.7%.
Screening Cc1ccc2cc3c(=O)n(C)cc(C=O)c3nc2c1 returned 2A StopGo 1.9% and RE007 growth inh 1.3%.
O=C(NCc1cccnc1)c1cc(C2CCCCN2S(=O)(=O)c2ccccc2)on1 (stereo not drawn) was read as 2A StopGo -1.0% and RE007 growth inh 8.8%.
For CC(C)c1ccc(Nc2ncc3c(n2)CCN(C(=O)Nc2ccc(F)c(Cl)c2)C3)cc1 the results were 2A StopGo inconclusive and RE007 growth inh -5.2%[18.4 µM].
Screening O=C(CSc1nc(=O)n(CCN2CCOCC2)c2c1CCCC2)Nc1ccccc1Cl returned 2A StopGo -22.9% and RE007 growth inh -9.7%.
COc1ccc(CNC(=O)c2ccccc2NC(=O)C2=C(C)OCCS2)cc1 was read as 2A StopGo -24.6% and RE007 growth inh 2.5%.
`CCCC[C@@H]1CN=C(N)N1CCCC` gave 2A StopGo -18.1% and RE007 growth inh -2.9%.
Screening O=C(O)c1ccc(Cl)cc1NC(=O)C1CCN(S(=O)(=O)c2cccs2)CC1 returned 2A StopGo -0.8% and RE007 growth inh 9.0%.
Screening COc1ccccc1-c1ccc2c(c1)C(C)(Cc1cccc(C#N)c1)C(=O)N2 (stereo not drawn) returned 2A StopGo inconclusive and RE007 growth inh 4.5%.
COc1ccc(CCN2C(=O)CCC2(C)c2nnnn2-c2c(C)cccc2C)cc1OC (stereo not drawn) was read as 2A StopGo -8.9% and RE007 growth inh 7.4%.
Screening O=C(NC(Cc1ccccc1)C(=O)N1CCN(c2ccc(F)cc2)CC1)c1ccccc1 (stereo not drawn) returned 2A StopGo -14.6% and RE007 growth inh 5.3%.
Screening CCC1CCCCN1C(=O)CCn1c(=O)oc2ccccc21 (stereo not drawn) returned 2A StopGo -12.6% and RE007 growth inh 2.4%.
`O=C(CC[C@H]1O[C@@H](n2cnc3c(NC(=O)c4ccccc4)ncnc32)[C@H](O)[C@@H]1O)NCc1ccccn1` gave 2A StopGo -9.9% and RE007 growth inh -3.0%.
Cn1nc(C2CC2)cc1NC(=O)C1(C)CCN1C(=O)c1ccccc1CCc1ccccc1 (stereo not drawn) was read as 2A StopGo inconclusive and RE007 growth inh -20.6%.
`Cc1ccccc1Cn1c(C)c(C(=O)N(C)Cc2ccc(F)cc2)sc1=O` gave 2A StopGo -16.7% and RE007 growth inh 28.7%[18.4 µM].
CCCCn1c(N)c(N(CCC(C)C)C(=O)c2c(CC)noc2C)c(=O)[nH]c1=O was read as 2A StopGo -9.9% and RE007 growth inh 1.9%.
CCOC(=O)[C@]12CCC=C1N(Cc1ccc3c(c1)OCO3)C(=O)[C@H](CC(=O)N1CCSCC1)C2 was read as 2A StopGo -10.7% and RE007 growth inh 17.2%.
`COc1ccc(NC(=O)Cc2csc(NC(=O)Nc3ccccc3OC)n2)cc1` gave 2A StopGo inconclusive and RE007 growth inh 0.2%.
Screening C(=NNC1=NCCN1)c1ccnc2ccccc12 returned 2A StopGo -2.2% and RE007 growth inh -23.7%.
CCOC(=O)CCCCCC(=O)Nc1ccc2c(c1)C(=O)N([C@@H](C)CO)C[C@H](C)[C@H](CN(C)C(=O)NC(C)C)OCCCC[C@H](C)O2 was read as 2A StopGo -21.9% and RE007 growth inh -16.6%.
For CCOC(=O)C1C(C(=O)OCC)C(C)(C)C1N(C)C (stereo not drawn) the results were 2A StopGo 0.0% and RE007 growth inh -2.6%.
OC[C@@H]1CN(Cc2ccc(-c3ccccc3)cc2)C[C@H](n2cnc3c(NC4CCC4)ncnc32)O1 was read as 2A StopGo 17.8µM* and RE007 growth inh 3.5%.
For O=S1(=O)CCN(Cc2ccccc2)CC1 the results were 2A StopGo -28.3% and RE007 growth inh -4.6%.
`C#CCNC(=O)C1=C[C@H](c2ccc3c(c2)OCO3)C[C@H](OCCCCO)O1` gave 2A StopGo 26.7% and RE007 growth inh 2.1%.
CC(C)C[C@@H](CN1CCC[C@@H]1CN1C(=S)NC[C@@H]1Cc1ccccc1)N1C[C@H](Cc2ccc(O)cc2)N(CC2CCCCCC2)C1=S was read as 2A StopGo -26.6% and RE007 growth inh 5.5%.
Screening O=C(Nc1ccc2c(c1)OCO2)c1cc(C2CCCCN2C(=O)c2ccc(Cl)cc2)on1 (stereo not drawn) returned 2A StopGo 7.3% and RE007 growth inh 2.8%[18.4 µM].
Screening C[C@H]1Cn2cnc(C(=O)NCC(=O)OC(C)(C)C)c2C(=O)N1 returned 2A StopGo 0.0% and RE007 growth inh -13.1%.
`COC(=O)C1=C[C@@H](C(=O)OC)C2C3=C(C(=O)C24CCCCC4)[C@H](C)n2c(=O)n(C)c(=O)n2[C@@H]3C1` (stereo partly drawn) gave 2A StopGo -6.9% and RE007 growth inh 2.9%.
Screening C[C@H](O)[C@@H]1CN2CCc3c([nH]c4ccc(-c5ccc6c(c5)OCO6)cc34)[C@@H]2C[C@@H]1N(C)C(=O)NC1CCCCC1 returned 2A StopGo -2.4% and RE007 growth inh 23.0%.
`O=C(CC1c2ccccc2C=C(c2ccsc2)N1c1ccc(-c2cccnc2)cc1)C1CC1` (stereo not drawn) gave 2A StopGo 0.0% and RE007 growth inh 2.2%.
`Cc1ccc(S(=O)(=O)N2CC3(O)CN(C(=O)OC(C)C)N(C(=O)OC(C)C)CC3(OC(=O)Nc3c(C)noc3C)C2)cc1` (stereo not drawn) gave 2A StopGo -12.9% and RE007 growth inh 2.7%.
CCCCCCCCN1C(=O)[C@H](CC(=O)N2CCCCC2)C[C@@]2(C(=O)OC)CCCCC=C12 was read as 2A StopGo -15.7% and RE007 growth inh 28.2%.
Screening COc1cccc(S(=O)(=O)N(C)C[C@@H]2Oc3ncc(C#CCN(C)C)cc3C(=O)N([C@H](C)CO)C[C@H]2C)c1 returned 2A StopGo -5.8% and RE007 growth inh 14.4%.
Screening CCCCN(C)C(=O)c1sc(=O)n(CC(=O)c2ccccc2OC)c1C returned 2A StopGo 0.8% and RE007 growth inh -2.9%[18.4 µM].
For CC1(C(=O)Nc2ccc3c(c2)OCCO3)CCN1C(=O)Cc1cc(F)ccc1F (stereo not drawn) the results were 2A StopGo -8.4% and RE007 growth inh -2.9%[18.4 µM].
O=C(COC(=O)C1COc2ccccc2O1)c1ccc(F)cc1 (stereo not drawn) was read as 2A StopGo -9.7% and RE007 growth inh 2.8%.
For COc1cccc(-c2cnc(C(O)c3cccc(CN4CCCCC4)c3)[nH]2)c1 (stereo not drawn) the results were 2A StopGo 0.3% and RE007 growth inh -1.0%.
COc1ccc(F)cc1CN1CCN(C(=O)c2ccc(S(=O)(=O)N3CCCCCC3)cc2)CC1 was read as 2A StopGo inconclusive and RE007 growth inh 3.8%.
`COc1ccc(CCNC(=O)COC(=O)CSc2ccc(C(N)=O)cc2[N+](=O)[O-])cc1OC` gave 2A StopGo -18.0% and RE007 growth inh -15.5%.

These rows are one share of the data; the hit share may differ from the screen's.
